Bioassay records deposited in PubChem BioAssay by National Center for Advancing Translational Sciences (NCATS).
HTT promoter inh: inhibitors of huntingtin promoter activity. HEK293 HTT promoter firefly luciferase reporter (activity 0% = vehicle and -100% = no light), 24 h. Potency, µM (series often up to 57.5 µM), without a hit: at the top dose activity change, negative = inhibition, most hits filed as inhibitors. 0.93% of 48,000 active. AID 1508623; active means well fitted inhibition curve with a large enough effect; inconclusive means small, poorly fitted or top-dose-only effect; inactive means no such curve, though single readings can be large or run the other way; further: nearly all actives have a fitted effect of over 50% in size
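Luminescence was read after Dual-Glo reagent and a 10 min room-temperature incubation. Values were normalized to vehicle (0% activity) and zero RLU (-100% activity). Reporter HEK293 cells had been exposed to compounds (up to 57.5 uM final) for 24 h.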
PMP22 txn prim: PMP22 gene transcription modulation. S16 Pmp22-F2sN Schwann cells (luciferase reporters placed in the Pmp22 gene), FLuc/NLuc coincidence luminescence, 24 h. Potency, µM (series often up to 57.5 µM), for inactives: at the highest dose activity change, negative = inhibition, usual class: inhibitors. 2% of 43,000 active; active = clear falling dose curves in both reporters; inconclusive = both reporters move, but less clearly or upward; inactive = either reporter flat; the % is the NLuc reporter signal; further: on the % scale 0 is the no-effect control and ±100 the full control effect; some results filed as inactive show a strong effect at the top dose
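S16 Schwann cells carrying FLuc/NLuc coincidence reporter in the Pmp22 3' UTR treated with compound 24 h at 37C; FLuc then NLuc luminescence read sequentially by dual-luciferase reagents.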
An asterisk follows results filed as active; ? = inconclusive; nt = not tested or not shown; [ ] = another dose, or the depositor's remark. Potency means the concentration at half of the fitted maximal effect. The order is random; about 2.6% have a hit in one of these screens.

Structure	HTT promoter inh	PMP22 txn prim
COc1ccc(NC(=O)c2ccco2)cc1NC(=O)C(C)(C)Oc1ccc(Cl)cc1	?	20%
CC(C)Sc1ncc(Cl)c(C(=O)Nc2nc3ccc(S(C)(=O)=O)cc3s2)n1	-2%	9%
O=C(O)Cn1nc(N2CCN(c3ccc(F)cc3)CC2)ccc1=O	-2%	3%
Cc1ccc(N(C(=O)COc2ccccc2C)S(=O)(=O)c2ccc(Cl)cc2)cc1	?	-22%
CCc1ccccc1N(C)C(=O)c1cn(CC(C)C)c(=O)c2cc(OC)c(OC)cc12	-18%	?
Cc1nnc(SCC(=O)NCc2cccc(F)c2)c2nn(-c3ccccc3)c(C)c12	?	?
COc1cc(Cl)c(NC(=O)CN2C(=O)c3cccnc3Sc3ccccc32)c(OC)c1	-24%	-16%
O=C(Nc1cccc2cccnc12)c1ccc(-c2cccc(Cl)c2)o1	4%	-24%
COc1ccc(-n2nnnc2C2CCN(S(=O)(=O)c3ccc(NC(C)=O)cc3)CC2)cc1	?	-17%
COc1cccc(N2CCN(C(=O)CCCn3c(=O)[nH]c4ccc(Br)cc4c3=O)CC2)c1	?	?
CC(C)CN(CCCNC(=O)c1cc(-c2cccs2)nc2ccccc12)CC(C)C	-15%	?
COc1ccccc1CNC(=O)CCc1c(C)nc2cc(-c3ccc(Cl)cc3)nn2c1C	4µM*	-16%
CCN(CC)C(=O)c1sc2c(c1C)c(=O)n(Cc1ccccc1)c(=O)n2Cc1c(C)cc(C)cc1C	-31%	?
COc1ccc(-c2ccc(CCC(=O)O)n2-c2ccc(Cl)cc2C)cc1	-16%	?
Cc1ccc(S(=O)(=O)C2(C(=O)Nc3ccc(C)c(Cl)c3)CC2)cc1	0%	-5%
COc1cc(F)c(F)c(Nc2ccc(I)cc2F)c1NS(=O)(=O)C1(C[C@H](O)CO)CC1	-9%	nt
COc1ccc(OC)c(C(=O)CN2C(=O)N(c3ccc(C)cc3)S(=O)(=O)c3ccccc32)c1	-21%	?
Cc1cccc(-c2nc3scc(CCNS(=O)(=O)c4ccc(F)c(C(F)(F)F)c4)n3n2)c1	-28%	-9%
COc1ccc(Cl)cc1Nc1sc(C(=O)c2ccccc2)c(N)c1C(=O)Nc1ccccc1	28µM*	?
CCOC(=O)c1c(S(=O)(=O)NCC(=O)N(C)Cc2ccccc2)c(C)n(C)c1C	-5%	3%

Arranged by SMILES length (rising): part of the list above.
Structure	HTT promoter inh	PMP22 txn prim
Cc1ccc(S(=O)(=O)C2(C(=O)Nc3ccc(C)c(Cl)c3)CC2)cc1	0%	-5%
Cc1cccc(-c2nc3scc(CCNS(=O)(=O)c4ccc(F)c(C(F)(F)F)c4)n3n2)c1	-28%	-9%
CCN(CC)C(=O)c1sc2c(c1C)c(=O)n(Cc1ccccc1)c(=O)n2Cc1c(C)cc(C)cc1C	-31%	?

Additional records
Structure	HTT promoter inh	PMP22 txn prim
COc1cccc(Cn2c(=O)n(-c3cccc(Cl)c3C)c(=O)c3c4c(sc32)CN(C(C)=O)CC4)c1	-9%	?
Cc1oc2cc3oc(=O)c(CCC(=O)NCCc4ccccc4F)c(C)c3cc2c1C	16%	-12%
O=C(Nc1cccc(Cl)c1)C1CCCN(c2ncnc3c2nc2n3CCCCC2)C1 (centres undefined)	-16%	?
CCc1ccc(NC(=O)CN2C(=O)C(=O)c3ccccc32)cc1	12%	-64%
Cc1cc(C)cc(NC(=O)CCCc2nc(-c3ccco3)no2)c1	-22%	2%
CC1CCN(S(=O)(=O)c2cn(CC(=O)Nc3cccc(C(F)(F)F)c3)c(=O)c3ccccc23)CC1	?	-24%
COc1ccccc1OCc1nc2ccccc2n1Cc1ccccc1	-6%	0%
Cc1cccc(NC(=O)Cn2c(=O)n(CCC(=O)N3CCc4ccccc4C3)c(=O)c3ccccc32)c1	-14%	11%
CCCCNc1nc(Oc2ccc(=O)n(-c3ccccc3)n2)nc(N(C)C)n1	?	?
Cc1cccc(OCC(=O)N(Cc2ccccc2)c2ccccn2)c1	-11%	-32%

In the list so far, two have a COOH group:
Structure	HTT promoter inh	PMP22 txn prim
O=C(O)Cn1nc(N2CCN(c3ccc(F)cc3)CC2)ccc1=O	-2%	3%
COc1ccc(-c2ccc(CCC(=O)O)n2-c2ccc(Cl)cc2C)cc1	-16%	?

Continuation.
Structure	HTT promoter inh	PMP22 txn prim
Cc1c(C)n(C)c2ccc(C(=O)NCCCN3CCCCC3)cc12	-15%	-1%
Cc1cc(NC(=O)CSc2nc3c([nH]c4ccccc43)c(=O)n2-c2cccc(Cl)c2)no1	-17%	?
CC(C)(C)OC(=O)N1CCC(c2c(C(=O)N3CCCCC3)cnn2-c2ccc(F)cc2)CC1	-8%	6%
CCC(C(=O)NCCc1ccc(OC)c(OC)c1OC)n1nc(C)c2sc3ccccc3c2c1=O (centres undefined)	?	?
O=C(NCc1cccc(Cl)c1)c1cnc(N2CCOCC2)c2ccccc12	-11%	-26%
CC1=C(c2ccc(F)cc2)S(=O)(=O)N=C1N1CCC(C(=O)NCCc2cccc(C)c2)CC1	?	-29%
Clc1ccc(Nc2nc(-c3ccccc3)c3ccccc3n2)c(Cl)c1	-7%[11.5 µM]	5%
COc1ccc2nc3sc(C(=O)N4CCN(c5ccccc5)CC4)cc3cc2c1	5%	-4%
CCCC1=Nc2cc(C(=O)NC3CCCCC3)ccc2Sc2ccc(C)cc21	?	0.9µM*
Cc1cccc(NC(=O)CN2C(=O)CC(c3ccccc3)Sc3ccccc32)c1 (centres undefined)	?	0%
Cc1ccc(C)c(C(=O)COC(=O)CCCC(=O)Nc2cc(C(F)(F)F)ccc2Cl)c1	-15%	11%
COc1ccc(NC(=O)c2ccc(NC(=O)CCS(=O)(=O)c3cccs3)cc2)cc1OC	6%	5%
CCN(C(=O)CSc1nnc(-c2cc3occc3n2C)n1-c1ccccc1C)c1cccc(C)c1	-16%	?
CCN(Cc1ccccc1)c1ncnc2c1nnn2C	-12%	-15%
Cc1ccc(S(=O)(=O)c2nc(-c3cccs3)oc2N2CCCCC2)cc1	?	9%
CC(C)n1cc2c(c1-c1ccccc1Cl)c(=O)n(C)c(=O)n2C	-12%	-2%
CCN(c1cccc(C)c1)S(=O)(=O)c1ccc2[nH]cc(C(=O)NCCCOC)c(=O)c2c1	?	?
N[C@@H](Cc1ccc(O)cc1)C(=O)O	-4%[11.5 µM]	nt
Cc1ccc2[nH]c(C)c(CCNC(=O)c3cc4cc(Br)ccc4oc3=O)c2c1	-4%	-1%
CC1CCc2nc3ncn(Cc4ccccc4C#N)c(=O)c3cc2C1 (centres undefined)	10%	-5%
CCc1ccc(C2=CC(c3c(F)cccc3Cl)n3c(nc4ccccc43)N2)cc1 (centres undefined)	-10%	?
Cc1c(Cl)cccc1NC(=O)CCOc1ccccc1	-11%	-28%
Cc1cc(C)cc(NC(=O)C2CC(=O)N(c3ccccc3)C2)c1 (centres undefined)	-15%	24%
COc1ccc(OC)c(NC(=O)CCn2cccn2)c1	0%	8%
CCCCN(C)CCCNC(=O)Cn1ncc2c3ccccc3n(Cc3ccccc3F)c2c1=O	?	?
COc1ccc(N2CC(NC(=O)C3CC3)CC2=O)cc1 (centres undefined)	-11%	-1%
COc1ccc(-c2nn(C)c3sc(C(=O)NCCN(C)C)cc23)cc1OC	5%	?
Cc1ccc(-c2[nH]c3ccccc3c2SCCNC(=O)c2ccc(S(=O)(=O)N3CCOCC3)cc2)cc1	?	?
CCOc1ccc(C(=O)NCCn2cc(SCC(=O)Nc3ccc4c(c3)OCCO4)c3ccccc32)cc1	-31%	?
CCc1ccc(-n2c(=O)c3c4c(sc3n(CC(=O)c3ccc(F)cc3)c2=O)CCC4)cc1	-7%	?
O=C(NCCc1ccccc1)c1cc(-c2ccccc2)nc2n[nH]c(-c3ccccc3)c12	17%	?
COc1cc(OC)cc(-c2ccc3ncc4ccc(=O)n(-c5ccc(N6CCNCC6)c(C(F)(F)F)c5)c4c3c2)c1	?	nt
COc1ccc(OC2CCN(S(=O)(=O)c3ccc(OC)cc3)CC2)cc1	?	-15%
COc1ccc(-c2nc(SCC(=O)N3CCN(c4ccc(F)cc4)CC3)n[nH]2)cc1	-4%	4%
O=C(Nc1ncc([N+](=O)[O-])s1)c1cccs1	-26%	nt
CCOC(=O)c1ccc(CN(Cc2ccc(OC)cc2)S(=O)(=O)c2cccc(C(F)(F)F)c2)cc1	1%	3%
NC(=O)C1CCN(C(=O)Cn2c(-c3cccs3)cc3ccccc32)CC1	-22%	?
CCOC(=O)c1cccc(Nc2ccc3cc(S(=O)(=O)N4CCCCC4)ccc3n2)c1	?	?
Cc1ccc(-c2noc(-c3ccc(N4CCOCC4)c([N+](=O)[O-])c3)n2)cc1	-31%	-4%
CCOc1ccc(NS(=O)(=O)c2ccc3c(c2)CCCN3C(=O)C2CCC2)cc1	?	?
Cc1ccc2oc(-c3cc(NC(=O)c4oc5ccccc5c4C)ccc3Cl)nc2c1	-13%	-16%
CC1CCC(NC(=O)c2ccc3c(c2)N(Cc2ccccc2)C(=O)c2ccccc2S3=O)CC1 (centres undefined)	-11%	-67%
Cc1cccc2sc(N(CCCN(C)C)C(=O)COc3ccccc3)nc12	-2%	-10%
Cc1ccc(-c2noc(CCC(=O)Nc3ccc(F)cc3Cl)n2)cc1	0%	-3%
Nc1nonc1-c1nc2ccccc2n1Cc1cccc(Cl)c1	-13%	?
Cc1nc2nc(C(F)(F)F)[nH]n2c(=O)c1Cc1ccccc1	-12%	33%
Cc1nnc(N2CCCC(C(=O)NCCc3ccccc3)C2)c2nn(-c3ccccc3)c(C)c12 (centres undefined)	-2%	?
CCOc1ccc(NC(=O)NC(CC)Cn2nnc3ccccc3c2=O)cc1 (centres undefined)	-7%	-18%
CCc1ccc(CN(Cc2ccco2)C(=O)c2ccc(OC)cc2)cc1	-15%	-13%
Cc1cccc(C(=O)NC2=NC(c3ccc(Cl)cc3)CC(=O)N2)c1 (centres undefined)	?	-4%

Other compounds:
Structure	HTT promoter inh	PMP22 txn prim
CCN(C(=O)Cn1cc(C(=O)c2ccc(F)cc2)c(=O)c2ccc(C)nc21)c1cccc(C)c1	-24%	9%
COCCN(Cc1ccco1)C(=O)c1cc2c(=O)[nH]c3ccc(C)cc3c2s1	6%	-10%
CC[C@H](C)n1cc(C)c2c(C(=O)NCc3c(C)cc(C)[nH]c3=O)cc(-c3ccc(N4CCNCC4)nc3)cc21	-4%	nt
CCC(=O)N1CCc2cc(CNC(=O)Nc3ccc(OC)cc3OC)ccc21	-22%	-6%
COc1ccc(Nc2nnc(-n3nc(C)cc3C)c3ccccc23)cc1	-7%	?
CCOC(=O)c1ccc(-c2ccc(/C=C(\C#N)c3nc4ccc(C)cc4[nH]3)o2)cc1	?	-166%
O=C(COCc1cc(-c2ccc(F)cc2)on1)Nc1cc(Cl)cc(Cl)c1	-17%	-2%
Cc1ccc(-n2c(SCc3ccccc3F)nc3[nH]ncc3c2=O)cc1Cl	?	?
Cc1ccc(-c2n[nH]c3c2C(c2ccccc2Cl)N(c2ccc(C(=O)O)cc2)C3=O)cc1 (centres undefined)	-28%	-27%
CC(=O)Nc1ccc(/C=C/c2nc(-c3ccccc3O)n(-c3ccccc3)n2)cc1	-10%	?
COc1ccc(OC)c(NC(=O)CSC2=Nc3ccccc3C3=NC(CCC(=O)NCCc4ccccc4)C(=O)N23)c1 (centres undefined)	-30%	?
Cc1nc(-c2ccc(S(=O)(=O)N3CCN(c4ccc(F)cc4)CC3)cc2)co1	?	?
COc1ccc(CNC(=O)CSc2ncc(S(=O)(=O)c3ccc(Br)cc3)c(=O)[nH]2)cc1	-11%	-1%
CC1CCC(Nc2ncnc3onc(-c4ccc(F)cc4)c23)CC1 (centres undefined)	-22%	-21%
CCCCc1nn2c(=O)cc(COC(=O)c3ccco3)nc2s1	-5%	50%
O=S(=O)(O)c1ccc2cc(N=Nc3cc(S(=O)(=O)O)c4cccnc4c3O)ccc2c1	-10%	nt
O=C1CSC2(C(=O)N(Cc3c(F)cccc3Cl)c3ccccc32)N1c1ccc(F)c(F)c1 (centres undefined)	?	-12%
CCCSc1nnc2c(n1)OC(CC)N(C(C)=O)c1ccccc1-2 (centres undefined)	-16%[11.5 µM]	-4%
COc1ccc(/C=C/c2nc(C#N)c(NC3CCCCC3)o2)cc1OC	2%	-46%
CCCc1cc(=O)oc2c3c(ccc12)OCN(Cc1ccccc1OC)C3	-28%	?
CCOc1cc(C#N)c(NC(=O)c2cccc(S(=O)(=O)N3CCOCC3)c2)cc1OCC	1%	-28%
